# Screening results from PubChem BioAssay.
# CtBP-E1A inh: qHTS Assay for Inhibitors of the CtBP/E1A Interaction; activity change, % (concentration not given with the values); actives 0.49% (n = 340,000); AlphaScreen GST-E1A/His-CtBP binding, 1536-well; hits give low values; control for the full effect not named in the record; in the data active means activity change below about -65%; inconclusive means about -30% to -65%; inactive means above about -30%; further: on the % scale 0 is the no-effect control and ±100 the full control effect
#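 GST-E1A and His-tagged CtBP (125 nM each as 5X stock) were preincubated with pin-transferred compound for 2 h at 37 °C in the dark, then glutathione donor and nickel acceptor beads were added for 1 h before AlphaScreen reading.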
# Six1-Eya2 inh: qHTS Assay for Inhibitors of the Six1/Eya2 Interaction | AID 651725, 2012 | activity change, % (test concentration not listed) | actives 0.56% (n = 360,000) | AlphaScreen GST-Six1/His-Eya2 binding, biochemical; hits give low values; control for the full effect not named in the record; in the data active = activity change below about -65%; inconclusive = about -30% to -65%; inactive = above about -30%; further: on the % scale 0 is the no-effect control and ±100 the full control effect; compound concentration not given in the record
# Target sequence (O00167 whole entry, looked up): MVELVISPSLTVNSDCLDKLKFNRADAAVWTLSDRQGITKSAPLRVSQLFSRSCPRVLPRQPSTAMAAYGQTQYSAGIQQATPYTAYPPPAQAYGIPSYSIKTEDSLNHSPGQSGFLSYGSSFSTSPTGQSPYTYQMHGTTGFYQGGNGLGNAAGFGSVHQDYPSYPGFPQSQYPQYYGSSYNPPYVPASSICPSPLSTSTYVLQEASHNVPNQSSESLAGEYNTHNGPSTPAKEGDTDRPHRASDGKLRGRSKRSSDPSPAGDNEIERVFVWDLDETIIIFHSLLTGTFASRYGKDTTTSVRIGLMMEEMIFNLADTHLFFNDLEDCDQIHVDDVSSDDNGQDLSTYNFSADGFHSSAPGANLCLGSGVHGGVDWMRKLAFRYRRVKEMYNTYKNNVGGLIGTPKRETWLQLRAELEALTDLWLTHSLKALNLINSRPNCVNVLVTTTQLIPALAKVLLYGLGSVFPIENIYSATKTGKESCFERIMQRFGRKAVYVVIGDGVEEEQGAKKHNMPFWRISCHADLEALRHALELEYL
# Target sequence (Q15475 whole entry, looked up): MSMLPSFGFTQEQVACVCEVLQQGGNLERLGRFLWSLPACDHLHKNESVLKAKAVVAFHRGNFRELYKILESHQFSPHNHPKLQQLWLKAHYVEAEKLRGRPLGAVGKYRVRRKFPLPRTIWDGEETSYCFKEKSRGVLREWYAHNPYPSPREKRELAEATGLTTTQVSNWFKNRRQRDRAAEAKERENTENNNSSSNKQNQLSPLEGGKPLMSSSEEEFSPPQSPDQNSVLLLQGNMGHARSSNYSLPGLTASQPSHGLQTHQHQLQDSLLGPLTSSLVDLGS
#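 GST-Six1 + His-Eya2 (5X stock: 250/500 nM); Tris pH 8.0, 300 mM NaCl, 0.05% BSA, 0.02% Tween 20; GSH donor/Ni acceptor beads; 1 h 37 °C dark; AlphaScreen readout.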
# D2 ag: Beta-Arrestin HTS for Positive Allosteric Modulators of the Human D2 Dopamine Receptor: Agonists | DiscoveRx PathHunter D2 beta-arrestin, luminescence, 90 min; 100% = 57 uM dopamine signal | actives 0.084% (n = 360,000) | activation, % (test concentration not listed) | AID 624465, 2012 | D(2) dopamine receptor (Homo sapiens), P14416; in the data active = activation above about 40%; inconclusive = about 15% to 40%; inactive = below about 15%; further: compound concentration not given in the record; the text of the record calls up to 30% inactive
#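 Agonist mode: compounds alone added to overnight-plated D2 PathHunter cells for 90 min at 37 C, with 57 uM final dopamine (EC100) defining full response. Beta-arrestin recruitment detected by chemiluminescent reagent, read after 1 h at ambient temperature.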
# TRPML1 inh: qHTS for Inhibitors of the Human Mucolipin Transient Receptor Potential 1 (TRPML1) | Mucolipin-1 (Homo sapiens), Q9GZU1 | TRPML1-inducible cells, Ca2+ dye fluorescence, FDSS; hits give low values; inhibition of EC80 agonist-evoked calcium signal | activity change, negative = inhibition, % (no concentration beside the values) | actives 0.02% (n = 390,000) | AID 624415, 2012; in the data active means activity change below about -50%; inconclusive means about -30% to -50%; inactive means above about -30%;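 further: stimulus is agonist 54-4 at its EC80 concentration; on the % scale 0 is the no-effect control and ±100 the full control effect; compound concentration not given in the record; the text of the record puts the active cut at -80%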
#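 Tet-induced TRPML1-DL cells loaded with Ca8 no-wash calcium dye were read kinetically on FDSS. Compound addition was followed by EC80 agonist 54-4 (4 uM final); inhibition was read over 110 s.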
# PINK1 expr mod: A Quantitative High throughput Screen to Identify Chemical Modulators of PINK1 Expression. AID 624263, 2012. actives 0.2% (n = 410,000). PINK1 immunofluorescence, high-content cytometry, 24 h. Potency, µM (doses to about 76.6 µM), for the others: at the highest dose activation (PINK1 increase), usual class: activators; active = well fitted activation curve with a large enough effect; inconclusive = small, poorly fitted or top-dose-only effect; inactive = flat fitted curve, though single readings scatter; cell line not stated here;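 further: potency means the concentration at half of the fitted maximal effect; % of control where 0% means no effect; nearly all actives have a fitted effect of over 65% in size; a mitochondrial uncoupler was the plate control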
#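 Fluorescence from anti-PINK1 antibody, together with nuclear and cell stains, was scanned on a laser-scanning cytometer. Before staining, stable-line cells were incubated 24 hours with compounds at 5 concentrations; primary antibody 12 h at 10 degrees C.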
# TRPML1 ag: qHTS for Agonists of the Human Mucolipin Transient Receptor Potential 1 (TRPML1); Mucolipin-1 (Homo sapiens), Q9GZU1; TRPML1-expressing cells, Ca2+ dye fluorescence, FDSS; host cell line not named in the record; reference of the full effect not given here; activation, % (concentration not given with the values); actives 0.12% (n = 410,000); AID 624414, 2012; in the data active = activation above about 50%; inconclusive = about 30% to 50%; inactive = below about 30%; further: 0% is about no effect; the text of the record puts the active cut at 80%
#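 Agonist activity was taken from a 110 s kinetic Ca2+ dye read on the FDSS after pinning compounds onto TRPML1-DL cells. The cells were seeded at 1,500/well with Tet inducer, incubated about 16 h, then dye-loaded at room temperature.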
# * marks the source's active call; other numbers are inactive results; ? = inconclusive; nt = no result given; & = joins results of further samples; [ ] = dose if it differs, or a comment. Hits appear at their usual frequency (roughly 1% active in at least one column).
SMILES,Six1-Eya2 inh,TRPML1 inh,D2 ag,PINK1 expr mod,CtBP-E1A inh,TRPML1 ag
COc1ccccc1OCCCCN1CCN(C(c2ccccc2)c2ccccc2)CC1,-23,-14,-3.5,7.3%,-16,8.5
CCCN(CC(=O)Nc1ccccc1C)C(=O)c1ccc(=O)n(Cc2ccccc2)n1,1,-18,-1.6,2.5%,-9,0.3
O=C(CCCc1nc(-c2ccc(Cl)cc2)no1)Nc1cccnc1,7,1,2.1,2.2%,0,0.9
O=C(Nc1ccc(F)cc1Cl)C1=COCCO1,5,-9,1.6,3.2%,-2,0.7
CCN(c1ccccc1)S(=O)(=O)c1ccc(-c2cc(C)no2)s1,nt,2,nt,7.2%,nt,2.8
COC(=O)c1ccccc1NC(=O)CSc1nncn1-c1cccnc1,-12,-13,-3.2,1.8%,0,-0.4
COc1ccc(C2N3CC4(C)CN2CC(c2ccccc2)(C3)C4=O)cc1 (stereo not given),nt,10,nt,-0.1%,nt,-0.6
CC1=C(OC(=O)C(C)(C)C)C(C)(C)C(c2ccccc2)OC1=O (stereo not given),-1,6,3.9,12%,3,0.8
COc1ccc(S(=O)(=O)Nc2ccc(O)c(Sc3nc4ccccc4s3)c2)cc1,2,-9&-7,4.6,-1.2%&-1.0%,-10,1.9&0.7
O=C(NNC(=O)c1ccc2ccccc2c1O)c1cccs1,-1,31,-4.1,2.6%,0,1.2
CC(C)C(=O)N1CCN(c2ccc([N+](=O)[O-])c(NC(C)c3ccccc3)c2)CC1 (stereo not given),-29,36,-0.5,-1.9%,-15,1.1
COc1ccc2oc(C)c(C(=O)Cn3ccnc3)c2c1,0,13,-1.4,-1.8%,10,-0.6
Cc1ccc(NC(=O)c2cnccn2)c(Br)c1,4,0,0.2,-0.2%,9,1.3
COC(=O)c1cn(NC(=O)/C=C/c2ccc(OC)c(OC)c2)c(=O)c2ccccc12,-3,-3,-3.0,2.7%,-5,-0.6
Cc1cc(C)cc(NC(=O)CN2CCc3cc4c(cc3C2C)OCCCO4)c1 (stereo not given),-11,-5,3.4,2.1%,-6,2.6
O=C(c1cccc(NS(=O)(=O)c2ccc(Br)cc2)c1)N1CCCCC1,4,9,3.3,6.2%,-4,-1.1
COc1ccc(-c2cc(C(=O)NC3CCCC3)c3ccccc3n2)cc1OC,12,21,-2.2,0.2%,-2,1.9
O=C(NCc1ccc2c(c1)CCN2C(=O)c1ccncc1)c1ccccc1F,nt,-15,nt,0.3%,nt,1.2
COCCn1cnc2c1c(=O)n(Cc1ccc(Br)cc1)c(=O)n2Cc1ccccc1,-7,30,1.2,0.0%,10,2.3
CC1(C)CC(=O)C2=C(C1)Nc1[nH]c(=S)[nH]c(=O)c1C2c1ccccc1 (stereo not given),-2,3,0.5,1.4%,0,-1.5
COC(=O)c1c(-c2cccnc2)csc1NC(=O)c1cc(C)on1,-11,21,0.5,11%[38.3 µM],-17,-0.4
COc1ccc(CNC(=O)CSc2nccn(-c3ccc(F)c(F)c3)c2=O)cc1,0,21,-2.2,3.0%,5,-0.1
Clc1ccc(C2NCCc3sccc32)cc1 (stereo not given),6,1,-3.9,1.0%,-1,1.2
Cc1ccc(S(=O)(=O)N2CCN(Cc3ccccc3)CC2)cc1,0,24,-1.3,-0.8%,6,1.0
CN(C)C1(CNC(=O)c2cccc(S(=O)(=O)NCc3ccccc3)c2)CCCCC1,-4,28,-5.7,-2.2%,-4,-0.1
O=C(NCCCCc1ccccc1)C1CC(c2ccccc2C(F)(F)F)=NO1 (stereo not given),10,-11,0.9,-1.7%,10,-0.1
Clc1ccccc1CSc1nc(NCCc2ccccc2)c2ccccc2n1,nt,-6,nt,0.0%,nt,2.9
C=CCn1c(C)nnc1SCC(=O)Nc1cc(S(=O)(=O)N2CCCC2)ccc1Cl,-3,21,-4.2,0.8%,4,0.5
O=CN(Cc1nc2ccccc2[nH]1)c1ccc(C(=O)O)cc1,12,5,-1.4,0.5%,1,-0.5
COc1cccc(CN(C)C[C@H]2OCc3cnnn3CCCC(=O)N([C@H](C)CO)C[C@@H]2C)c1,-1,nt,-1.5,0.3%,1,nt
CCOC(=O)c1ccc(NC(=O)Nc2cc3c(cc2N2CCCC2)n(C)c(=O)n3C)cc1,nt,8,nt,?,nt,0.8
O=C(COC(=O)/C=C/c1cccc(F)c1)Nc1ncccn1,-3,10,-1.8,-1.2%,10,0.2
Cc1nc2cc(C(=O)OCC(=O)N(CC(C)C)C3CCS(=O)(=O)C3)ccc2n1-c1ccccc1 (stereo not given),-4,9,-1.1,-5.7%,6,-0.8
COc1ccc(COC(=O)C2CCN(C(=O)c3ccc(Cl)cc3)CC2)cc1F,-9,-2,-0.8,4.2%,11,1.3
CC(C)CCOC(=O)C1[C@H]2C(=O)N(Cc3cccs3)C[C@]23C=C[C@H]1O3 (stereo not given in full),10,-12,-1.5,0.3%,-1,0.6
NCCCC[C@H]1CN=C(N)N1CC1CCCCC1,8,-5,-0.7,-0.8%,1,-0.7
COC(=O)c1ccc(CSc2nnc(CNC(=O)c3ccc(OC)cc3)o2)o1,9,-3,0.3,-2.4%,-5,2.3
Cc1nc2c(oc3ccc(Cl)cc32)c(=O)[nH]1,?,nt,-4.3,-1.0%,?,nt
COC(=O)c1[nH]c2ccc(C)cc2c1NC(=O)CN1CCN(Cc2ccccc2)CC1,-8,13,-4.6,2.2%,-2,-0.7
COCCNC(=O)CCc1ccc(S(=O)(=O)Nc2ccc(C)cc2)cc1,4,6,-3.3,-3.3%[38.3 µM],4,0.4
Cc1cc(NC(NC(=O)c2ccco2)(C(F)(F)F)C(F)(F)F)no1,5,0,-0.1,-2.3%,-4,0.8
O=c1o[nH]c(-c2ccccc2)c1-c1ccccc1,-4,2,-4.9,1.5%,4,0.4
O=C(O)CSc1nnc(-c2ccc(Cl)cc2Cl)n1-c1ccccc1,3,4,-1.1,0.1%,1,-0.5
CC(=O)CCc1oc2ccc(C)cc2c1-c1ccccc1,22,2,0.7,18%,26,1.2
COc1cccc(S(=O)(=O)N2CCN(C(=O)c3ccco3)CC2)c1,4,-9,1.7,0.3%,6,0.0
CC(C)c1ccc(N(C(=O)c2csnn2)C(C(=O)NC(C)(C)C)c2ccncc2)cc1 (stereo not given),3,28,-3.3,-4.5%[38.3 µM],13,-0.3
COCc1n[nH]c(=S)n1-c1cccc2ccccc12,4,-9,0.6,-0.5%,-1,-0.3
O=C(Nc1cccc(C(F)(F)F)c1)c1ccc2nc(-c3ccco3)c(-c3ccco3)nc2c1,-77*,3,4.3,-0.2%,?,-0.4
COc1cc(C2C=C(c3cccs3)Nc3ncnn32)cc(OC)c1OC (stereo not given),-23,2,-9.5,4.6%,-7,?
COc1cccc(-c2cc(=O)c3cc(NC(=O)c4ccc(N(C)C)cc4)ccc3[nH]2)c1,-8,-7,-0.4,18%,-28,-0.4
C[C@H](NC(=O)c1ncn2c1C(=O)N[C@@H](C)C2)c1ccccc1,-22,nt,0.0,0.0%,-19,nt
O=S(=O)(/N=C(/Nc1cccc2ccccc12)c1ccccc1)c1ccc(F)cc1,-8,-4,-4.7,-1.6%,nt,0.5
CN(C)C(=O)c1cc(-c2ccccc2)no1,0,22,-0.9,-0.7%,12,0.4
CCOc1ccc(OCCC(=O)OCC(=O)Nc2ccc3c(c2)OCO3)cc1,-5,-9,-3.5,-2.3%,-10,2.5
Cc1cc(C)cc(-n2cnc3cc(C(=O)NCCc4ccccc4)ccc32)c1,nt,17,nt,1.6%,nt,2.6
CCCCNC(=O)COC(=O)c1cc(Br)ccc1Cl,3,8,-2.5,2.1%,6,1.2

# (listing goes on)
SMILES,Six1-Eya2 inh,TRPML1 inh,D2 ag,PINK1 expr mod,CtBP-E1A inh,TRPML1 ag
C[C@@H]1CN([C@@H](C)CO)C(=O)c2cc(-c3ccccc3F)cnc2O[C@H]1CN(C)Cc1cccc(F)c1,-27,1,-2.0,2.0%,-16,0.7
O=C(NCCCN1CCOCC1)c1cc(-c2ccc3c(c2)OCO3)nc2ccccc12,-29,-11,-5.0,0.8%,-4,-0.5
NC(=O)CC(NC(=O)Cc1ccc(Cl)cc1)c1ccc(NCC2CC2)c([N+](=O)[O-])c1 (stereo not given),0,-11,-2.9,5.2%,-3,0.2
C=CC[C@H](CC(=O)N(CCO)Cc1ccccc1)C(=O)NC[C@@H](OC(=O)[C@@H](CC=C)Cc1ccc(F)cc1)c1ccccc1,-8,-23,2.6,18%,-22,3.4
N#CCC(CNc1ncc(C(F)(F)F)cc1Cl)OC(=O)c1c(F)cccc1F (stereo not given),5,15,-1.4,-0.3%[38.3 µM],4,2.7
CCCNC(=S)N1CCC(C(=O)c2ccc(F)cc2)CC1,4,19,-0.7,-0.7%,1,-0.5
CCN(CC(=O)NC1CCCC1)S(=O)(=O)c1ccc(C)cc1,8,17,1.6,nt,-1,0.4
CC1CCCCN1Cc1c(O)ccc2c(=O)c(-c3nc4ccccc4s3)c(N)oc12 (stereo not given),?,-8,-6.3,-0.2%,?,0.0
